HNF4A DNA FP = change in binding of human HNF4 alpha to DNA; HNF4a-FITC DNA binding, fluorescence polarization, 1 h; activity change, % at 10 µM; 0.3% of 360,000 active; AID 1224865; in the data active = activity change above about 30%, passing the limit was not always enough;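 note: controls were the assay level and a saturating level of protein; the project sought stronger binding though the title names inhibitors; some compounds called inactive have numbers as strong as hits; positive values seem to mean higher polarization but the record does not say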
Target sequence (P41235 whole entry, looked up): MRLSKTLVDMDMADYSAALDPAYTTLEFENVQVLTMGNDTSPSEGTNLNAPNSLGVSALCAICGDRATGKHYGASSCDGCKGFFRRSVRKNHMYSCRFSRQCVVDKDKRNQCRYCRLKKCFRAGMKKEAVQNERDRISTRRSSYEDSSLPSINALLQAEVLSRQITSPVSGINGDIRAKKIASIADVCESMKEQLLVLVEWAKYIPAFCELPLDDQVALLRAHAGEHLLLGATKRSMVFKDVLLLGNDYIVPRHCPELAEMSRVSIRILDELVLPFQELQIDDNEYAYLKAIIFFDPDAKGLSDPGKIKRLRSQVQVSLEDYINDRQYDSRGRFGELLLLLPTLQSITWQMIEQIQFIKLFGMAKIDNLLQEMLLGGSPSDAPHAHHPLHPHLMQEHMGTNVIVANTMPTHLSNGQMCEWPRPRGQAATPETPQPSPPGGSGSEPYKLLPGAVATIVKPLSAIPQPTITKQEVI
ALR H2O2 inh = inhibitors of human sulfhydryl oxidase ALR. purified ALR, DTT oxidation, H2O2 HRP-luminol luminescence. inhibition, % (concentration not given with the values). 3.8% of 290,000 active. AID 485317;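 active = mean and each replicate at 75% or more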;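 note: stock transfer was 7.5 nL into about 7.5 µL; 0% = neutral wells and 100% = wells with inactivated enzyme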
Target sequence (P55789 whole entry, looked up): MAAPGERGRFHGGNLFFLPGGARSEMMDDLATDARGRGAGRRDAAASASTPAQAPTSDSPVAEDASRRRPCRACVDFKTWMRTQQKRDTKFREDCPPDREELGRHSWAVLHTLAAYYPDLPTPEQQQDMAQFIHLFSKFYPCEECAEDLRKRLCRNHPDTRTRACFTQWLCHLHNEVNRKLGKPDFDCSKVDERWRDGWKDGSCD
rRNA inh HTS = selective bacterial rRNA inhibition in E. coli; E. coli WT GFP vs humanized-ribosome RFP mutants, fluorescence, 24 h; hits give low values; DMSO median 0, no signal -100; GFP signal change (wild-type ribosome), % (test concentration not listed); 1.6% of 350,000 active;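 active = significant combined selectivity score with lowered wild-type GFP, culture density cut under 30%, mutant RFP and density less affected; inactive = any of these conditions unmet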; note: one replicate is shown; some compounds called inactive have numbers as strong as hits
Ecoli growth = inhibitors of Escherichia coli growth; OD600, 23 h; hits give low values; 0.21% of 330,000 active; AID 1053175; OD600 absorbance (test concentration not listed);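 active = OD600 absorbance below the run mean of sample wells minus 3.6 SD, in any replicate, cut at about 0.56 in these data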;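 note: stock transfer was 300 nL into about 60 µL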
Vif A3G = HIV-1 Vif–A3G interaction blockers – biochemical, TR-FRET, GST-Vif 1-94, biotin-A3G peptide, dose response retest, primary screen (AID 1117319). 0.57% of 260,000 active. TR-FRET GST-Vif / biotin-A3G peptide binding; higher % means a stronger effect; test concentration not given here; strong numbers were not always called active. inhibition, %, or IC50 in µM where a hit was titrated;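 active = above the screen mean plus three standard deviations and confirmed in dose response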;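 note: Vif residues 1-94 fused to GST binding biotinylated APOBEC3G peptide 110-148; 0% = full assay without inhibitor and 100% = GST in place of GST-Vif; retest series ran down from 100 µM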
FGF22 binding = binders of recombinant human FGF22 by thermal shift. Q9HCT0. SYPRO orange fluorescence; percent of sucrose octasulfate shift, DMSO zero. calls only at 9.99 µM. 1.5% of 340,000 active;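 active = melting point raised past a set limit in the mean and every replicate; three in four hits are not shown here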
Target sequence (Q9HCT0 whole entry, looked up): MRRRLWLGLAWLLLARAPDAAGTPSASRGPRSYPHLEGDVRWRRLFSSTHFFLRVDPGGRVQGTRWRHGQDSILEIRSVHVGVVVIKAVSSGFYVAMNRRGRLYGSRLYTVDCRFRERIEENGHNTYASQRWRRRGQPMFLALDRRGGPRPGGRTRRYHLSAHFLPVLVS
MLL AF4-AF9 inh = blocks AF4 peptide binding to human AF9. 0.47% of 350,000 active. AlphaScreen, biotin-AF4 peptide binding to FLAG-AF9. inhibition, % at 10 µM. P42568;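 active = every replicate reaching a set inhibition limit, whatever the replicate mean, cut at about 25% in these data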;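 note: 0% = plate neutral control median and 100% = total signal loss; the record names both 10 and 1 µM as test concentration; the first replicate is given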
rRNA inh HTS OD600 = recorded beside rRNA inh HTS, whose call it bears; OD600 change, %; measured here: OD600 growth;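 optical density of the mix in the first replicate; 0 = DMSO median and -100 = no signal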
rRNA inh HTS RFP = second read-out of rRNA inh HTS, no call of its own (marks repeat the call); RFP signal change, %; measured here: RFP humanized mutant strains;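 first replicate; 0 = DMSO median and -100 = no signal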
Numbers without * were called inactive; i = inactive; / = not tested or not shown; & = joins results of further samples. Not all compounds are listed (hit frequency here may not be typical).

Sample of the layout (three entries):
SMILES	HNF4A DNA FP	ALR H2O2 inh	rRNA inh HTS	rRNA inh HTS OD600	rRNA inh HTS RFP	Ecoli growth	Vif A3G	FGF22 binding	MLL AF4-AF9 inh
Cc1nnc2c(NC(C)C)nc3ccccc3n12	1.5	-7	/	/	/	0.7	1%	/	/
O=C(Nc1ccccc1C(F)(F)F)NC1CCCCCCC1	-4.7	-2	3	0	0.4	0.73	1%	i	-3.1
Cc1cc(C)n(CC(=O)n2c(C)c(C)c3ccccc32)n1	-0.5	/	/	/	/	0.72	16%	/	/

Main list, repeating the preview:
SMILES	HNF4A DNA FP	ALR H2O2 inh	rRNA inh HTS	rRNA inh HTS OD600	rRNA inh HTS RFP	Ecoli growth	Vif A3G	FGF22 binding	MLL AF4-AF9 inh
Cc1nnc2c(NC(C)C)nc3ccccc3n12	1.5	-7	/	/	/	0.7	1%	/	/
O=C(Nc1ccccc1C(F)(F)F)NC1CCCCCCC1	-4.7	-2	3	0	0.4	0.73	1%	i	-3.1
Cc1cc(C)n(CC(=O)n2c(C)c(C)c3ccccc32)n1	-0.5	/	/	/	/	0.72	16%	/	/
Cc1ccc2c(c1)CCO[C@@]21O[C@H](CCO)C[C@H](O)[C@H]1O	2.7	/	3	6	-1.1	/	/	i	-0.6
COc1c(C)cc(Br)cc1C(=O)O	2.7	-5	/	/	/	0.67	1%	/	/
COc1ccc(S(=O)(=O)N(C)C[C@@H]2OCCCC[C@H](C)Oc3ccc(NC(=O)Nc4ccc(F)cc4)cc3C(=O)N([C@@H](C)CO)C[C@@H]2C)cc1	/	/	1	5	1.6	/	/	i	-0.3
C[C@H](CO)N1C[C@H](C)[C@H](CN(C)C)Oc2ccc(N(C)C)cc2C1=O	/	/	4	4	-2.6	/	/	i	-2.2
CCOc1ccc(NC(=O)c2cc(F)c(F)cc2Cl)cc1OCC	-1.8	4	4	7	-0.8	0.66	/	i	1.1
C=CCSc1ccc(S(=O)(=O)N2CCN(C)CC2)cn1	-5.6	1	/	/	/	0.68	-3%	i	-2.1
CC1SC(C)C(=O)N(CC(=O)NC2CCCCC2)C1=O (centres undefined)	1.7	/	12	-2	-2.0	0.69	-3%	i	0.2
CSc1nc(-c2ccc(Cl)cc2)nn1S(=O)(=O)c1ccccc1	-3.4	5	/	/	/	0.82	8%	/	/
COCCn1c(SCc2cc(=O)n3cc(C)ccc3n2)nc2ccccc2c1=O	/	-3	/	/	/	0.8	-5%	/	/
CCOC(=O)c1cnc(SC2CC(=O)N(c3ccc(OC)c(OC)c3)C2=O)nc1N (centres undefined)	3.4	-1	/	/	/	0.69	-5%&-4%	/	/
COc1ccc(NC(=O)Nc2ccc3c(c2)CC(=O)N([C@@H](C)CO)C[C@H](C)[C@@H](CN(C)S(=O)(=O)c2cccs2)O3)cc1	/	/	-3	-4	-1.8	/	/	i	-2.6
O=C(NCc1ccccn1)c1ccc(Br)s1	-5.9	8	-1	2	4.3	0.69	7%	/	/
Cc1ccc(N2C(=O)c3ccccc3C2=O)cc1	0.4	-5	6	9	-0.4	0.69	7%	i	0.1
COC(=O)C1=C/C=C\CN(C(c2ccccc2)c2ccccc2)/C=C\1C(=O)OC	-4.3	/	-5	-29	5.0	/	-7%	i	5.2
OCCc1ccc(NCCc2ccco2)cc1	8.7	/	5	5	-1.2	/	/	i	1.2
O=[N+]([O-])c1ccc(-c2nc(=S)c3c(o2)CCCC3)cc1	-1.9	/	5	2	-3.4	0.69	1%	i	3.2
CCc1nnc(NC(=O)CN2CCN(C(=O)c3ccccc3)CC2)s1	2.5	-12	17	8	-0.7	0.73	-8%	i	-1.1
O=C(Nc1ccccc1)N1CCCCN2[C@H](C1)[C@H](c1ccc(-c3ccccc3)cc1)[C@@H]2CO	/	/	-9	-25	20	/	/	i	5.4
C=CCN(c1ccccc1C(=O)NCC(=O)O)S(=O)(=O)c1ccccc1C	0.7	1	5	6	-0.5	0.66	-6%	i	0.6
CCCCN(C(=O)c1ccc(N(C)S(=O)(=O)c2ccc(C)cc2)cc1)c1c(N)n(CCC)c(=O)[nH]c1=O	2.2	8	4	6	0.7	0.69	/	i	-0.6
COC(=O)CSc1cc([N+](=O)[O-])cc2c1c(C1OCCO1)nn2-c1ccccc1	4.7	4	/	/	/	0.71	2%	/	/
O=C1NC[C@H](CCCCN2C[C@H](Cc3ccc(O)cc3)N(CC3CCCCC3)C(=O)C2=O)N(CCc2ccc(O)cc2)C1=O	-5.7	/	6	-3	3.1	/	/	i	0.3
C/C(=N\NC(=O)c1c(C)nc2ccccn12)c1ccc(N2CCOCC2)cc1	-1.3	87*	13	11	2.9	/	-11%	i	7.2
CSc1cccc(NC(=O)CCNS(=O)(=O)c2ccc3[nH]c(=O)oc3c2)c1	-2.8	-20	2	1	-2.4	0.69	9%	i	-7.0
CCc1cccc(NC(=S)N(CCCOC(C)C)C2CCN(C(C)=O)CC2)c1	0.1	/	5	15	4.3	0.69	-10%	i	-7.7
COC(=O)/C=C1\SC(N)=NC1=O	-0.1	-15	3	1	0.1	0.67	-3%	i	3.6
Cc1ccc(-c2cc(C(F)F)n3ncc(C(=O)N4CCc5ccccc5C4)c3n2)cc1	-2.1	-3	-8	-7	1.5	0.71	0%	i	0.8
CCn1c(SCC(=O)N/N=C/c2ccc(OC)c(OC)c2)nc2ccccc21	-2.2	-4	/	/	/	/	24%	/	/
CC(=O)Oc1ccc(C23c4ccccc4C2(OC(C)=O)c2cc(OC(C)=O)ccc23)cc1 (centres undefined)	-2.4	/	-3	-5	8.3	0.68	1%	i	1.6
CCOc1ccc(CCNC(=O)c2ccc3c(=O)n4c(nc3c2)CCCCC4)cc1	0.8	-4	1	0	-3.0	0.71	-4%	i	-2.0
CC(=O)N/N=C/c1c(C)[nH]n(-c2ccccc2)c1=O	1.3	3	16	4	-0.2	/	8%	/	0.6
CCOC(=O)c1ccc(NC(=S)N2CCSC2c2ccc(Br)cc2)cc1 (centres undefined)	-1.2	-6	/	/	/	0.67	-6%	/	/
CCc1cc(C(=O)c2ccccc2)c(N)s1	0.4	99*	6	12	-0.8	0.7	0%	i	-1.1
Nc1nonc1C(=O)NCCNCc1ccccc1	1.2	-9	/	/	/	0.69	23%	/	/
CCNc1nc(NC(C)C)nc(OCC)n1	-1.5	-2	/	/	/	0.67	7%	/	/
Nc1nc2c(ncn2-c2ccccc2)c(=O)[nH]1	-0.8	/	/	/	/	0.61	5%	i	0.4
CS(=O)(=O)N(CC(=O)N1CCCCCC1)c1ccccc1	-0.3	3	/	/	/	0.68	-4%	/	/
Cc1nnsc1S(=O)(=O)Cc1ccccc1C(F)(F)F	-2.5	/	3	-2	0.8	0.69	4%	i	-7.6
CC(/C=N/NC(=O)c1nnn(-c2nonc2N)c1C(C)C)=C\c1ccccc1	0.1	8	-18	-21	1.6	/	2%	i	9.9
Cc1nnc(N2C(=O)c3oc4ccccc4c(=O)c3C2c2ccco2)s1 (centres undefined)	-5.4	27	3	3	1.2	0.76	16%	i	0.9
CCC(=O)N(C)C[C@@H]1Oc2ncc(Br)cc2C(=O)N([C@@H](C)CO)C[C@H]1C	1.1	/	26&4	17&6	2.0&-1.6	/	/	i	-0.5&-7.5
COc1ccc(C(=O)Nc2cccc(-c3csc(C)n3)c2)cc1S(=O)(=O)N1CCCC1	3.0	1	-5	-7	9.8	0.67	-17%	i	-1.3
CCOC(=O)CNC(=O)c1ccc(Br)s1	-0.6	-4	8	6	4.9	0.7	/	i	-1.2
O=C(NCC[C@H]1CC[C@@H](NC(=O)c2ccc3c(c2)OCO3)[C@H](CO)O1)Nc1cc(F)ccc1F	/	/	-3	-2	1.8	/	/	i	4.8
COc1ccccc1-c1noc2ncnc(Nc3ccccc3C)c12	6.2	5	-27*	-9.5*	-5.3*	0.73	/	i	-1.8
COc1ccc(S(=O)(=O)N(C)C[C@@H]2Oc3ccc(NS(=O)(=O)c4ccccc4)cc3CC(=O)N([C@H](C)CO)C[C@@H]2C)cc1	/	/	0	6	1.5	/	/	i	-1.4
CNC(=S)N/N=C/c1cn(Cc2ccc(C)cc2)c2ccccc12	-1.3	5	-8	-5	-2.7	/	/	i	7.5
COc1cc(/C=C(/NC(=O)c2ccc(Cl)cc2Cl)C(=O)O)cc(OC)c1OC	-2.1	-4	13	9	1.2	0.63	-6%	i	-25
c1ccc(CCc2nn3c(Cn4nnc5ccccc54)nnc3s2)cc1	1.9	-16	/	/	/	0.72	5%	/	/
CCC(=O)Nc1cccc(-c2nc3ccccc3c(=O)o2)c1	3.7	0	/	/	/	0.74	72%	/	/
C[C@@H]1CN([C@H](C)CO)C(=O)c2cccc(NS(=O)(=O)c3ccc(F)cc3)c2O[C@H]1CN(C)S(=O)(=O)c1ccc(F)cc1	/	/	0	3	3.2	/	/	i	-0.1
COc1cccc(-c2ccc([C@@H]3[C@H]4CN(C(=O)c5ccc(F)cc5)CCCCN4[C@H]3CO)cc2)c1	/	/	-46	-59	-0.1	/	/	i	-8.1
Cc1nc(SCC(=O)Nc2c(C)n(C)n(-c3ccccc3)c2=O)[nH]c(=O)c1Cc1ccccc1	0.7	-4	7	1	1.9	0.67	-4%	i	-6.4
CCN1C(=O)C(=O)N(CC(=O)N2CCC(C)Sc3ccccc32)C1=O (centres undefined)	4.0	-28	-1	0	0.1	0.7	-8%	i	-1.8
CN(C)S(=O)(=O)c1ccc(NC(=S)NC(=O)c2ccc(Br)o2)cc1	/	-7	16	19	11	0.69	/	i	1.7
Cc1ccc(CC(=O)N2CC(C)OC(C)C2)cc1 (centres undefined)	0.3	-4	/	/	/	0.71	-6%	/	/
O=C(OCc1cncs1)c1ccccc1	3.1	/	3	3	1.7	0.65	-2%	/	-0.2
Remaining list, next part:
SMILES	HNF4A DNA FP	ALR H2O2 inh	rRNA inh HTS	rRNA inh HTS OD600	rRNA inh HTS RFP	Ecoli growth	Vif A3G	FGF22 binding	MLL AF4-AF9 inh
O=C(N/C(=C/c1ccc(Br)cc1)C(=O)N1CCCCC1)c1ccccc1F	-0.2	4	4	7	-1.4	0.7	0%	i	0.6
NC(c1csc(NC(=O)Nc2ccccc2Cl)n1)C1CCCCC1 (centres undefined)	0.6	/	-28	-62	8.1	/	/	i	2.8
CC(C)CN1CCN(Cc2nc3ccccc3s2)CC1CCO (centres undefined)	-5.2	-5	17	15	2.8	0.7	4%	i	0.5
CC1CC(C)CN(C(=O)/C(=C\c2ccccc2)c2ccccc2)C1 (centres undefined)	2.8	-2	/	/	/	0.69	/	/	/
COc1ccc2sc(N(CCCN(C)C)C(=O)c3ccc(S(=O)(=O)N(C)Cc4ccccc4)cc3)nc2c1	2.4	-4	-56	-79	-16	0.68	3%	i	18
NS(=O)(=O)c1ccc(CNC(=O)CCSCCC(=O)NCc2ccc(S(N)(=O)=O)cc2)cc1	-6.9	-6	13	9	3.2	0.71	2%	i	-5.4
Cc1c(CCO)c(=O)n(C)n1C(=O)c1ccc(F)cc1	1.1	4	/	/	/	0.67	31%	/	/
COCCCNC(=O)CCn1c(=O)c2ccccc2n(Cc2cccc([N+](=O)[O-])c2)c1=O	0.3	-9	11	8	16	0.71	-5%	i	/
CCC(=O)Nc1ccc2c(c1)OC[C@H](C)NC[C@@H](C)[C@@H](OC)CN(C)C2=O	/	/	2	5	-0.1	/	/	i	0.2
COc1ccc(OC)c(-c2nnc(SCC(=O)N3CCCC3)o2)c1	1.2	-16	-6	3	-1.5	0.71	-9%	i	5.1
CC(C)NC(=O)N[C@H]1CC[C@H](CC(=O)NC2Cc3ccccc3C2)O[C@@H]1CO	/	/	-4	2	-2.9	/	/	i	-1.9
COc1ccc(NC(=O)N[C@H]2C=C[C@@H](CC(=O)NC3CCCCC3)O[C@@H]2CO)cc1	/	/	2	5	-1.6	/	/	i	-1.8

High-throughput results from PubChem.
